# Source: PubChem (several laboratories)
# rRNA inh HTS: inhibitors of bacterial rRNA selective over humanized ribosomes; E. coli WT GFP vs humanized-ribosome RFP mutants, fluorescence, 24 h; hits give low values; DMSO median 0, no signal -100; actives 1.6% (n = 350,000); AID 720706; GFP signal change (wild-type ribosome), % (concentration not given with the values);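 active means significant combined selectivity score with lowered wild-type GFP, culture density cut under 30%, mutant RFP and density less affected; inactive means any of these conditions unmet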; further: one replicate is shown; some compounds called inactive have numbers as strong as hits
# E coli growth: inhibitors of Escherichia coli growth; OD600 absorbance (concentration not given with the values); AID 1053175; OD600, 23 h; hits give low values; actives 0.21% (n = 330,000);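 active means OD600 absorbance below the run mean of sample wells minus 3.6 SD, in any replicate, cut at about 0.56 in these data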;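 further: stock transfer was 300 nL into about 60 µL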
# ALR inh: human ALR oxidase inhibition via reduced H2O2; P55789; purified ALR, DTT oxidation, H2O2 HRP-luminol luminescence; inhibition, % (concentration not given with the values); actives 3.8% (n = 290,000); AID 485317;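 active means mean and each replicate at 75% or more; inconclusive means only one of the two met; inactive means neither met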;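 further: stock transfer was 7.5 nL into about 7.5 µL; 0% = neutral wells and 100% = wells with inactivated enzyme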
# HNF4A DNA FP: change in binding of human HNF4 alpha to DNA; actives 0.3% (n = 360,000); AID 1224865; HNF4a-FITC DNA binding, fluorescence polarization, 1 h; activity change, % at 10 µM; P41235; in the data active means activity change above about 30%, passing the limit was not always enough;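 further: controls were the assay level and a saturating level of protein; the project sought stronger binding though the title names inhibitors; some compounds called inactive have numbers as strong as hits; positive values seem to mean higher polarization but the record does not say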
# Target sequence (P41235 whole entry, looked up): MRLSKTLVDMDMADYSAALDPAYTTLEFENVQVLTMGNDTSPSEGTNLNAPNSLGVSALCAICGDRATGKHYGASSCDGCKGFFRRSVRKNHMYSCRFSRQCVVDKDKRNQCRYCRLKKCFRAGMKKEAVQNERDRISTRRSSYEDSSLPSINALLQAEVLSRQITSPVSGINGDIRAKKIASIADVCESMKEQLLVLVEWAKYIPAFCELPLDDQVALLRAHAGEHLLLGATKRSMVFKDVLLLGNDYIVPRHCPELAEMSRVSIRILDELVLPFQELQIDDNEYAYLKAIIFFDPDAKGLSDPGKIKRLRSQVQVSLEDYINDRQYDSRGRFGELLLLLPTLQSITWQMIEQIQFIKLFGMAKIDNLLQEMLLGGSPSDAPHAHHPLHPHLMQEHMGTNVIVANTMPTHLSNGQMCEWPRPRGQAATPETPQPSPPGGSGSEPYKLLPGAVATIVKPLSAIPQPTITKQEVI
# FGF22 binding: shifts melting point of recombinant human FGF22 | recombinant FGF22 thermal shift, SYPRO orange fluorescence; percent of sucrose octasulfate shift, DMSO zero | AID 651658 | actives 1.5% (n = 340,000) | calls only at 9.99 µM;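 active means melting point raised past a set limit in the mean and every replicate; inconclusive means no clear call; three in four hits are not shown here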
# Vif TR-FRET: inhibitors of Vif binding to APOBEC3G peptide, primary screen, biochemical, TR-FRET, GST-Vif 1-94, biotin-A3G peptide, dose response retest (AID 1117319) | actives 0.57% (n = 260,000) | inhibition, %; hits with a dose series show IC50 in µM | TR-FRET GST-Vif / biotin-A3G peptide binding; higher % means a stronger effect; test concentration not given here; strong numbers were not always called active;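 active means above the screen mean plus three standard deviations and confirmed in dose response; inconclusive means results disagree or hit not tested in dose response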;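 further: Vif residues 1-94 fused to GST binding biotinylated APOBEC3G peptide 110-148; 0% = full assay without inhibitor and 100% = GST in place of GST-Vif; retest series ran down from 100 µM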
# MLL AF4-AF9 inh: MLL-AF4/AF9 protein interaction inhibition; inhibition, % at 10 µM; AID 651704; P42568; actives 0.47% (n = 350,000); AlphaScreen, biotin-AF4 peptide binding to FLAG-AF9;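 active means every replicate reaching a set inhibition limit, whatever the replicate mean, cut at about 25% in these data; inconclusive means mean inhibition reaches that limit but some replicates miss it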;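 further: 0% = plate neutral control median and 100% = total signal loss; the record names both 10 and 1 µM as test concentration; the first replicate is given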
# Target sequence (P42568 whole entry, looked up): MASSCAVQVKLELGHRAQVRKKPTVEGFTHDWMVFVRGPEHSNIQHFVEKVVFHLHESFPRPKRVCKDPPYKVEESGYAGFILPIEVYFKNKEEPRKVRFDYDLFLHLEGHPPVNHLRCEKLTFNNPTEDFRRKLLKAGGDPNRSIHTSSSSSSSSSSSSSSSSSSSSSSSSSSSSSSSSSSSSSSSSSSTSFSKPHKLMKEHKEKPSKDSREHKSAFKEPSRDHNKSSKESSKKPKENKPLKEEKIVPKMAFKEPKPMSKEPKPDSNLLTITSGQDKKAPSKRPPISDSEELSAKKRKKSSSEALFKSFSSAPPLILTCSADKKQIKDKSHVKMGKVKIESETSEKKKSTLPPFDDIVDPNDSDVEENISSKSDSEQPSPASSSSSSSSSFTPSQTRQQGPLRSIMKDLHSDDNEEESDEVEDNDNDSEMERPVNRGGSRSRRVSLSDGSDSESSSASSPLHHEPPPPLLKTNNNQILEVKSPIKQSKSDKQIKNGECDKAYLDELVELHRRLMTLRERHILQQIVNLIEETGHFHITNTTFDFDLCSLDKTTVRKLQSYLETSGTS
# rRNA inh HTS OD600: further read-out of rRNA inh HTS, marked with its call; OD600 change, %; measured here: OD600 growth;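 optical density of the mix in the first replicate; 0 = DMSO median and -100 = no signal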
# rRNA inh HTS RFP: also measured in rRNA inh HTS; calls as there; RFP signal change, %; measured here: RFP humanized mutant strains;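 first replicate; 0 = DMSO median and -100 = no signal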
# Starred values were filed as active, the others as inactive; i = inactive; ? = inconclusive; . = no result given; + = active, no number; & = joins results of further samples.
# Screens in order: rRNA inh HTS, rRNA inh HTS OD600, rRNA inh HTS RFP, E coli growth, ALR inh, HNF4A DNA FP, FGF22 binding, Vif TR-FRET, MLL AF4-AF9 inh
1) COC(=O)C(NNc1ccccc1)(NC(=O)c1ccc(F)cc1)C(F)(F)F (stereo not drawn)
  ., ., ., 0.68, 46.1, 1.7, ., 0.5%, .
2) CCn1nc(C)c(C2C(C#N)=C(N)Oc3n[nH]c(C)c32)c1C (stereo not drawn)
  10.4, 4.2, -3.6, 0.698, 6.9, 0.6, i, -3.5%, 4.4
3) Cc1nnc(SCCC(=O)Nc2ccccc2Cl)o1
  -4.2, -7.8, 0.7, 0.624, -3.7, 0.7, i, ., 0.6
4) CC1CCCCC12NC(=O)N(CC(=O)Nc1cccnc1)C2=O (stereo not drawn)
  8.4, 12.4, 0.5, ., ., 1.6, i, ., -5.1
5) COc1ccc(S(=O)(=O)NC(=O)C2(C)CCN2C(=O)C(C)(C)c2ccccc2)cc1 (stereo not drawn)
  ., ., ., ., ., 4.5, i, ., -1.8
6) CCN(CC)C(=O)C1=C(C)N(CCC2=CCCCC2)C(=O)C(CC(=O)NCc2cccc3ccccc23)C1 (stereo not drawn)
  ., ., ., ., ., -1.6, i, 7.6%, -0.2
7) C[C@H]1CN([C@@H](C)CO)C(=O)c2cccc(NC(=O)Nc3ccc(C(F)(F)F)cc3)c2O[C@H]1CN(C)Cc1ccc2c(c1)OCO2
  -41.7, -68.3, 10.1, ., ., ., i, ., 7.4
8) CCOc1ccc(NC(=O)CC2NCCNC2=O)cc1 (stereo not drawn)
  ., ., ., 0.732, -10.5, -0.1, ., 3.2%, .
9) NS(=O)(=O)c1ccc(N/N=C/c2ccncc2)cc1
  2.2, -2.0, -2.6, ., 6.9, -1.0, i, ., 0.2
10) Cn1cc(CCC(=O)NCc2cccc(Cl)c2)c2ccccc21
  -10.7, -24.7, 1.6, 0.681, ., -0.1, i, -2.6%, -1.9
11) COc1ccc2c(c1)c1ncn(CCCN3CCOCC3)c(=O)c1n2C
  ., ., ., 0.599, -5.1, 1.2, ., -4.3%, .
12) CCN(CC)CCOc1c(C)cccc1Cl
  12.3, 12.3, -1.1, 0.684, -11.3, -3.1, i, -5.0%, -0.5
13) COc1cc(CNc2ccc3[nH]c(=O)[nH]c3c2)ccc1OCc1ccccc1C
  -1.9, -1.7, 2.2, 0.731, ?, 1.4, i, 14.8%, 4.3
14) CC(C)NC(=O)Nc1ccc2c(c1)C(=O)N([C@H](C)CO)C[C@@H](C)[C@H](CN(C)S(=O)(=O)c1ccccc1)O2
  2.5, 5.7, -2.0, ., ., ., i, ., -0.9
15) COC(=O)c1ccc(C2/C(=C(\O)c3ccc(OC)c(C)c3)C(=O)C(=O)N2c2cc(C)on2)cc1 (stereo not drawn)
  ., ., ., 0.68, 10.4, 3.4, ., 10.9%, .
16) O=C(N/N=C/c1ccco1)C1CC1c1ccccc1 (stereo not drawn)
  11.6, -1.5, 4.3, ., 11.8, -11.8, i, ., 1.8
17) Cc1ccc(NC(=O)COC(=O)c2ccco2)cc1C
  3.1, 1.8, 2.6, 0.675, -11.5, 2.8, i, -3.4%, -0.2
18) CCOc1ccc(CCNC(=O)c2cc(=O)[nH]c3ccc(S(=O)(=O)N(CC)CC)cc23)cc1OCC
  1.2, -0.1, 0.8, 0.738, -11.0, 3.9, i, ., -12.1
19) COc1ccccc1N(C(=O)c1snc(C(N)=O)c1N)C(C(=O)NCc1ccccc1)c1ccc(C)o1 (stereo not drawn)
  2.6, -8.5, 2.4, 0.738, ., 0.9, i, ., 0.6
20) O=C(c1cccc(F)c1)N1CC2(C1)[C@H](c1ccccc1)[C@H](CO)N2C(=O)C1CCCCC1
  -9.6, -0.5, 2.1, ., ., ., i, ., -2.1
21) CN(C(=O)c1cccc(NC(=O)Cc2cccc(NC(=O)C3CCN(C(=O)CCc4ccccc4)CC3)c2)c1)C1CC1
  -37.9*, -14.7*, 5.5*, 0.7, ., 1.1, i, 3.0%, -2.6
22) N#CC1=C2SCN(c3ccccc3)CN2C(=O)CC1c1cccs1 (stereo not drawn)
  ., ., ., 0.677, -11.8, -2.6, ., 11.4%, .
23) C[C@H]1CN([C@@H](C)CO)C(=O)c2cccc(NS(C)(=O)=O)c2O[C@@H]1CN(C)C(=O)NC1CCCCC1
  0.1, -3.8, -1.9, ., ., ., i, ., -0.3
24) COc1cc2c(cc1OC)CN(C(=O)c1ccc(S(=O)(=O)N3CCCCC3)cc1)CC2
  ., ., ., 0.658, -7.3, 2.4, ., 1.1%, .
25) O=C(NCC[C@@H]1CC[C@@H](NC(=O)C2CCC2)[C@@H](CO)O1)c1cc(Cl)cc(Cl)c1
  -1.0, -6.1, -0.2, ., ., ., i, ., -2.6
26) CNC(=S)N(CCc1c(C)[nH]c2ccc(C)cc12)Cc1cc(OC)c(OC)c(OC)c1
  -1.0, -8.8, -1.7, 0.703, 28.4, -0.9, i, 1.7%, 17.2
27) COc1ccc(C(CC(=O)N2CCCCC2)c2c(OC)cc(OC)c3ccc(=O)oc23)cc1 (stereo not drawn)
  -9.7, -0.7, -0.9, 0.619, ., -3.9, i, ., -1.1
28) N#Cc1cc(S(=O)(=O)c2ccc(F)cc2)c(N)[nH]c1=O
  9.4, 7.5, -1.5, 0.691, -16.0, 2.8, i, ., 1.3
29) C[C@@H]1CN([C@@H](C)CO)C(=O)c2ccccc2-c2ccccc2CO[C@@H]1CN(C)S(C)(=O)=O
  0.7, 2.3, -1.9, ., ., ., i, ., -1.3
30) COC(=O)c1c(NC(=O)COC(=O)c2ccc(C)s2)sc2c1CCCCC2
  11.8, 3.4, 1.3, 0.716, 7.8, -1.7, i, -10.1%, -0.9
31) COc1ccc(CC(=O)n2nc(-c3cccnc3)nc2N)cc1
  ., ., ., 0.657, 16.4, -1.2, ., 0.6%, .
32) COC(=O)C1=C(C)NC2=C(C(=O)CC(C)(C)C2)C1c1cccc(C)n1 (stereo not drawn)
  ., ., ., 0.653, -14.4, 2.8, ., 15.3%, .
33) COc1ccc(S(=O)(=O)N[C@H]2CC[C@H](CC(=O)NCCc3ccccc3)O[C@@H]2CO)cc1
  -0.1, 1.1, -0.5, ., ., ., i, ., -1.2
34) CC1(C)CC(=O)C=C(Nc2ccc(Cl)cc2)C1
  5.7, 1.8, -0.4, 0.694, 4.8, 0.9, i, -4.8%, -0.1
35) O=[N+]([O-])c1cc(C(F)(F)F)ccc1NCCc1c[nH]c2ccccc12
  ., ., ., 0.657, -6.4, -1.5, ., ., .
36) N#CC1=C(N)NC(SCC(=O)Nc2ccccc2)=C(C#N)C12CCCC2
  ., ., ., 0.751, 94.5*, 1.8, ., -5.6%, .
37) CN(C)CCCNC(CC(=O)Nc1cccc([N+](=O)[O-])c1)C(=O)O (stereo not drawn)
  12.8, 9.6, -3.1, 0.664, -2.1, 1.7, i, ?, -1.6
38) CC(C)(C)c1ccc(C(=O)NCc2nnc(SCC(=O)NCc3ccco3)o2)cc1
  -1.3, 6.9, 4.0, 0.75, -0.8, 3.1, i, 22.8%, -9.2
39) Cc1ccc(N/N=C2/CCCNC2=O)cc1
  ., ., ., ., 90.0*, 0.0, ., 20.9%, .
40) COc1cccc(C(=O)Nc2ccc3c(c2)OC[C@H](C)N(CCc2ccccc2)C[C@H](C)[C@H](OC)CN(C)C3=O)c1
  -4.4, -1.7, 4.4, ., ., ., i, ., 5.8
41) Cc1nc(-c2ccc(NC(=O)C3CC3)cc2)cs1
  3.0, 4.8, -0.3, 0.684, 66.9, 0.8, i, ., 2.1
42) O=C(NC1CC1)c1cccc(NC(=O)C2CCN(S(=O)(=O)c3ccccc3C(F)(F)F)CC2)c1
  -3.2, -15.5, 3.9, ., ., -1.9, i, -3.7%, 0.2
43) CN(C(=O)CN1C(=O)S/C(=C\c2ccc(Cl)cc2)C1=O)C1CCS(=O)(=O)C1 (stereo not drawn)
  3.0, 9.5, -5.9, 0.626, 0.9, -3.8, i, ., -4.9
44) O=C(O)c1ccc(S(=O)(=O)NC2CCCc3ccccc32)cc1 (stereo not drawn)
  ., ., ., 0.743, -0.8, 0.2, ., -1.6%, .
45) COC(=O)C(C)n1nnc2sc(-c3ccccc3)cc2c1=O (stereo not drawn)
  12.9, 20.8, 2.8, 0.736, -24.3, 2.1, i, 5.5%, 2.0
46) COC(=O)c1ccc2c(=O)n(CCCCCC(=O)N3CCN(c4ccccc4)CC3)c(=O)[nH]c2c1
  ., ., ., 0.753, 12.2, -1.4, ., -3.5%, .
47) O=C(NN=Cc1ccccc1O)c1cccc([N+](=O)[O-])c1
  -27.1*, 7.7*, -2.1*, 0.676, ., -16.4, i, 1.1%, -1.8
48) COc1ccccc1C#Cc1ccc2c(c1)O[C@H](CN(C)Cc1ccncc1)[C@H](C)CN([C@@H](C)CO)S2(=O)=O
  -2.0, -0.8, 1.0, ., ., ., i, ., 1.7
49) COc1ccc(CCNc2oc(COc3ccc(Br)cc3)nc2C#N)cc1OC
  -20.1, -33.1, -4.4, 0.768, -10.3, 5.2, i, -1.0%&5.0%, -1.4
50) CCC(=O)N1C[C@H](C)[C@H](OC)CN(C)C(=O)c2cc(NC(=O)COC)ccc2OC[C@H]1C
  -2.5, 1.2, -0.8, ., ., ., i, ., -3.4
51) COc1ccc(NC(=O)CSc2nc3ccccc3c(=O)[nH]2)cc1S(N)(=O)=O
  10.5, 8.8, -0.2, 0.629, -14.2, 3.6, i, 0.7%, 1.2
52) Cc1cccc(NC(=O)CNC(=O)[C@H]2O[C@@H](n3ccc(N)nc3=O)[C@H](O)[C@@H]2O)c1C
  12.8, -0.2, 1.5, ., ., 1.4, i, ., -7.1
53) Cc1ccc2nc(COc3ccc(N(C)S(=O)(=O)c4ccccc4)cc3)cc(=O)n2c1
  6.6, 6.8, -0.3, 0.685, ., -6.5, i, -57.5%, 6.5
54) COc1ccc(C(=O)Nc2ccc(Cl)cc2C(=O)N2CCCC(C)C2)cc1 (stereo not drawn)
  ., ., ., 0.688, 5.1, -1.2, ., 1.0%, .
55) CCC(C)[C@H](NC(=O)C1(c2ccccc2)CCN(C(=O)OC(C)(C)C)CC1)C(=O)N[C@@H](C(=O)O)c1ccccc1 (stereo partly drawn)
  8.0, 9.3, 3.7, 0.739, -13.9, -1.2, i, ., -1.2
56) Cc1cccc(N)c1-c1c(C)cccc1N
  2.7, 3.0, -3.0, 0.689, 19.5, 2.6, i, -1.4%, 0.5
57) O=S(=O)(N[C@@H]1CC[C@@H](CCn2cc(-c3cccnc3)nn2)O[C@H]1CO)c1ccc(Cl)cc1
  -1.8, -2.6, 2.1, ., ., ., i, ., -1.0
58) O=C(O)c1cccc(Nc2nc(C(F)(F)F)nc3ccccc23)c1
  -30.5, -35.0, -7.2, 0.698, -17.8, 2.5, +, -6.9%, -0.4
59) CC1CCCC2(C1)NC(=S)c1c(sc3c1CCCC3)N2 (stereo not drawn)
  ., ., ., 0.751, 61.1, 1.6, ., ?, .
60) CCOC(=O)CCNC(=O)N1CCCC(N(C)CCc2ccc(OC)c(OC)c2)C1 (stereo not drawn)
  2.1, 15.5, 1.8, 0.668, ., -0.3, i, ., 0.8
61) COc1ccc(NC(=O)C2CCCN(S(=O)(=O)c3c(C)n[nH]c3C)C2)c(OC)c1 (stereo not drawn)
  ., ., ., 0.684, -14.2, 0.8, ., -4.1%, .
62) Cc1cccc(NC(=S)N2CCN(C(=O)c3ccco3)CC2)c1C
  -13.3, -22.0, -0.6, ., -2.6, 1.7, i, ., -0.8
63) O=C(NNC(=O)c1cccnc1)Nc1ccc(Cl)c(Cl)c1
  ., ., ., 0.721, 2.4, 2.0, ., 0.1%, .

# Some of the compounds tested. The share of hits here may be higher or lower than overall.
